Source: PubChem
DUX4 inh: DUX4-mediated transcription inhibition; AID 1224904; 293T-iDUX4 ZSCAN4-Gaussia luciferase reporter, 24 h; active compounds read low; activity change, negative = inhibition, % (test concentration not listed); 37,000 tested, 0.8% active;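 active = -10% or lower and over 25 points stronger than a control reporter; inconclusive = -10% or lower with a smaller gap; inactive = above -10%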;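 note: 0% = median of neutral control wells and -100% = median of positive control wells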
DUX4 inh difference: second read-out of DUX4 inh, no call of its own (marks repeat the call); Gaussia minus Italica difference, %; measured here: selective DUX4 reporter inhibition;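 worked out from the two reporters; negative = selective loss of the DUX4 reporter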
DUX4 inh control: second read-out of DUX4 inh, no call of its own (marks repeat the call); activity change, negative = inhibition, %; measured here: Italica tet-on control reporter;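 0 = neutral control and -100 = positive control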
Numbers without * were called inactive; ? = inconclusive; . = no result given. Not all compounds are listed; rates above refer to the full screens.

The opening seven compounds, ahead of the listing:
SMILES	DUX4 inh	DUX4 inh difference	DUX4 inh control
CNC(=O)C[C@H]1CC[C@@H]2[C@H](COc3ccc(NC(=O)c4cccc(OC)c4)cc3C(=O)N2C)O1	-1	0	-1.0
COCC(=O)N(C)C[C@H]1Oc2cc(C#CCC3CCCC3)ccc2S(=O)(=O)N([C@H](C)CO)C[C@@H]1C	3	1	1.3
COc1ccc2c3c(n(C)c2c1)[C@@H](CO)N(C(=O)Cc1ccccc1)CC31CCN(C)CC1	9	-3	12
CN(C)CC#Cc1ccc([C@@H]2[C@H]3CN(C(=O)c4cccc(F)c4)CC(=O)N3[C@H]2CO)cc1	17	9	7.9
O=S(=O)(NC[C@H]1N[C@H](CO)[C@H]1c1ccccc1)c1ccccc1	-2	-1	-0.6
N#C[C@H]1[C@@H](c2ccc(C#CC3CCCC3)cc2)[C@@H](CO)N1S(=O)(=O)c1ccccc1	2	0	2.4
C[C@H](CO)N1C[C@H](C)[C@@H](CN(C)CC2CC2)OCc2ccccc2-c2ccccc2C1=O	5	0	5.2

All compounds of this part (from the top)
SMILES	DUX4 inh	DUX4 inh difference	DUX4 inh control
CNC(=O)C[C@H]1CC[C@@H]2[C@H](COc3ccc(NC(=O)c4cccc(OC)c4)cc3C(=O)N2C)O1	-1	0	-1.0
COCC(=O)N(C)C[C@H]1Oc2cc(C#CCC3CCCC3)ccc2S(=O)(=O)N([C@H](C)CO)C[C@@H]1C	3	1	1.3
COc1ccc2c3c(n(C)c2c1)[C@@H](CO)N(C(=O)Cc1ccccc1)CC31CCN(C)CC1	9	-3	12
CN(C)CC#Cc1ccc([C@@H]2[C@H]3CN(C(=O)c4cccc(F)c4)CC(=O)N3[C@H]2CO)cc1	17	9	7.9
O=S(=O)(NC[C@H]1N[C@H](CO)[C@H]1c1ccccc1)c1ccccc1	-2	-1	-0.6
N#C[C@H]1[C@@H](c2ccc(C#CC3CCCC3)cc2)[C@@H](CO)N1S(=O)(=O)c1ccccc1	2	0	2.4
C[C@H](CO)N1C[C@H](C)[C@@H](CN(C)CC2CC2)OCc2ccccc2-c2ccccc2C1=O	5	0	5.2
C[C@@H]1CCCCO[C@@H](CN(C)C(=O)Nc2ccc(C(F)(F)F)cc2)[C@H](C)CN([C@@H](C)CO)C(=O)c2cc(NS(=O)(=O)c3ccc(Cl)cc3)ccc2O1	6	-1	6.7
CCCNC(=O)N1[C@H](CO)[C@@H](c2ccc(C3=CCCC3)cc2)[C@@H]1CN(C)C(C)=O	1	3	-1.9
CCCN(C)C[C@H]1Oc2cc(C#CC3(O)CCCC3)ccc2S(=O)(=O)N([C@@H](C)CO)C[C@H]1C	-5	-7	2.1
C[C@@H]1CN([C@H](C)CO)C(=O)CCCn2nncc2CO[C@H]1CN(C)C(=O)Nc1ccccc1C(F)(F)F	3	4	-0.7
CCC(=O)N1CCC2(CC1)CN(Cc1ccc3c(c1)OCO3)[C@H](CO)c1c2c2ccc(OC)cc2n1C	7	0	6.4
C/C=C/c1ccc([C@@H]2[C@@H](CO)N(c3nc(CC)cs3)[C@H]2C#N)cc1	2	2	0.0
C[C@H](CO)N1C[C@H](C)[C@@H](CN(C)C(=O)Nc2ccc(F)cc2)Oc2c(NC(=O)C3CCCCC3)cccc2C1=O	1	0	1.4
COc1ccc(-c2ccc([C@H]3[C@@H](C#N)N(C(=O)C4CC4)[C@H]3CO)cc2)cc1	-6	-1	-5.2
O=C(C[C@@H]1C[C@@H]2c3cc(NC(=O)Nc4ccc(C(F)(F)F)cc4)ccc3O[C@@H]2[C@@H](CO)O1)NCC1CC1	-4	2	-5.5
CCOC(=O)N(C)C[C@@H]1OCc2cnnn2CCCC(=O)N([C@@H](C)CO)C[C@@H]1C	-1	-6	5.1
CCCC#Cc1ccc([C@@H]2[C@H](CO)N3CCCCN(Cc4cccnc4)C[C@@H]23)cc1	?	.	.
COc1cccc(-c2ccc(C3[C@@H]4CN(S(=O)(=O)c5ccccc5C)C[C@H]3N4)cc2)c1 (stereo partly specified)	?	.	.
COc1ccc(-c2ccc3n(c2=O)C[C@@H]2[C@@H](CO)[C@H](C(=O)N4CCOCC4)N[C@H]32)cc1	2	1	1.3
CN(C)C(=O)c1cccc(-c2ccc(C3[C@H]4CNC[C@@H]3N4Cc3ccccc3C(F)(F)F)cc2)c1 (stereo partly specified)	12	-6	18
CN1c2ccc(-c3ccccc3)cc2[C@@H]2[C@@H](CCN2C(=O)CC2CC2)[C@H]1CO	?	.	.
COc1cccc(CNC(=O)[C@H]2[C@H](CO)[C@H]3Cn4c(cccc4=O)[C@@H]2N3C(=O)C2CCC2)c1	1	1	0.8
CCCC(=O)Nc1ccc2c(c1)C(=O)N(C)[C@@H]1CC[C@@H](CC(=O)O)O[C@H]1CO2	0	-4	4.3
C[C@H](CO)N1C[C@H](C)[C@@H](CN(C)Cc2ccc3c(c2)OCO3)Oc2c(NC(=O)Nc3ccc(C(F)(F)F)cc3)cccc2C1=O	1	-6	6.9
More compounds follow:
SMILES	DUX4 inh	DUX4 inh difference	DUX4 inh control
O=C(NCC[C@H]1CC[C@@H](NC(=O)c2cnccn2)[C@@H](CO)O1)c1ccc2c(c1)OCO2	0	-2	2.3
CO[C@@H]1CN(C)C(=O)c2cc(NC(=O)CC(F)(F)F)ccc2OC[C@H](C)N(CC2CC2)C[C@@H]1C	3	-2	4.2
O=C(C[C@@H]1C[C@H]2c3cc(NC(=O)CC4CC4)ccc3O[C@H]2[C@H](CO)O1)NCc1ccncc1	-1	-1	-0.1
C[C@H](CO)N1C[C@H](C)[C@H](CN(C)Cc2cncnc2)Oc2cc(Br)ccc2S1(=O)=O	-4	2	-6.4
Cc1ccc(-c2ccc([C@H]3[C@H]4CN(C)CCCCN4[C@H]3CO)cc2)cc1	11	-3	13
CN(C)C(=O)c1ccc(-c2ccc([C@@H]3[C@H](CO)N4CCCCN(Cc5ccncc5)C[C@@H]34)cc2)cc1	13	6	6.8
C[C@@H]1CN([C@@H](C)CO)C(=O)CCCn2cc(nn2)CO[C@@H]1CN(C)C(=O)Nc1ccc(C(C)(C)C)cc1	8	2	5.6
CO[C@H](CN(C)S(=O)(=O)c1cccc(Cl)c1)[C@@H](C)CN([C@H](C)CO)S(=O)(=O)c1cccc(Cl)c1	1	6	-4.9
C[C@@H]1CN([C@@H](C)CO)C(=O)c2cc(-c3cccc(C(=O)N(C)C)c3)cnc2O[C@H]1CN(C)S(=O)(=O)c1cccc(F)c1	-4	-2	-2.0
Cc1noc(C)c1S(=O)(=O)Nc1ccc2c(c1)C(=O)N([C@@H](C)CO)C[C@H](C)[C@H](CN(C)C(=O)Nc1ccc3c(c1)OCO3)OCCCC[C@H](C)O2	3	3	0.6
O=C(NCC[C@@H]1CC[C@H](NS(=O)(=O)c2ccccc2)[C@@H](CO)O1)c1ccccc1F	3	5	-1.3
COc1cccc(C(=O)Nc2ccc3c(c2)OC[C@@H](C)N(CCc2ccccc2)C[C@H](C)[C@H](OC)CN(C)C3=O)c1	?	.	.
Cc1ccc(S(=O)(=O)Nc2ccc3c(c2)C(=O)N([C@H](C)CO)C[C@H](C)[C@H](CN(C)S(=O)(=O)c2cccs2)OCCCC[C@@H](C)O3)cc1	-1	1	-2.2
Cc1ccccc1-c1ccc2c(c1)O[C@@H](CN(C)C(=O)Nc1ccc(C(F)(F)F)cc1)[C@H](C)CN([C@@H](C)CO)S2(=O)=O	-2	-2	0.2
CCN1[C@@H]2c3ccc(-c4ccccc4F)c(=O)n3C[C@H]1[C@H](CO)[C@H]2C(=O)NCc1ccccc1	-5	-3	-1.2
COc1ccc(C#Cc2ccc([C@@H]3[C@H](CO)N4C(=O)CN(C(=O)c5ccc(F)cc5)C[C@@H]34)cc2)cc1	?	.	.
COc1cccc(NC(=O)N2CC(=O)N3[C@H](CO)[C@@H](c4ccc(Br)cc4)[C@H]3C2)c1	11	5	5.6
C[C@H]1CN([C@@H](C)CO)C(=O)c2cccc(NC(=O)Nc3ccc(F)cc3)c2O[C@H]1CN(C)CC1CCCCC1	1	-2	3.0
CNC[C@@H]1Oc2ccc(NS(=O)(=O)c3ccc(Cl)cc3)cc2CC(=O)N([C@H](C)CO)C[C@H]1C	1	-7	8.5
O=S(=O)(c1ccccc1)N1C[C@@H]2[C@H](c3ccccc31)[C@@H](CO)N2Cc1ccccc1	4	2	1.4
CC(C)NC(=O)N(C)C[C@@H]1Oc2ccc(NS(=O)(=O)c3ccc(Cl)cc3)cc2C(=O)N([C@@H](C)CO)C[C@H]1C	0	0	0.2
CCN1[C@@H]2Cn3c(ccc(C4=CCCCC4)c3=O)[C@H]1[C@@H](C(=O)N1CCOCC1)[C@@H]2CO	2	-3	5.8
O=C(C[C@H]1C[C@H]2c3cc(NC(=O)c4cccnc4)ccc3O[C@H]2[C@H](CO)O1)NCC1CC1	14	6	8.3
CC(=O)Nc1ccc2c(c1)C(=O)N(C)[C@H]1CC[C@H](CC(=O)Nc3ccc(C)cc3)O[C@@H]1CO2	1	3	-2.0
CCC(=O)N(C)C[C@H]1Oc2ncc(C#CC(C)C)cc2C(=O)N([C@@H](C)CO)C[C@H]1C	-5	-4	-1.2
The list goes on:
SMILES	DUX4 inh	DUX4 inh difference	DUX4 inh control
O=C1N[C@H](Cc2ccccc2)COCc2cn(nn2)CC[C@@H]1Cc1ccc(-c2ccccc2)cc1	2	9	-6.4
O=C(c1ccccc1)N1CC(=O)N2[C@H](C1)[C@@H](c1ccc(C#CC3CC3)cc1)[C@@H]2CO	-2	0	-2.4
CN1C(=O)c2cc(NC(=O)c3cccc(F)c3)ccc2OC[C@@H]2O[C@@H](CC(=O)N3CCc4ccccc4C3)CC[C@@H]21	1	2	-0.6
CN(C)C(=O)c1cccc(-c2ccc3n(c2=O)C[C@@H]2[C@@H](CO)[C@H](C(=O)NCC4CC4)N[C@H]32)c1	3	7	-4.1
O=C(C[C@@H]1CC[C@@H]2[C@H](COC[C@H](O)CN2Cc2ccncc2)O1)NCC1CC1	3	1	2.1
Cc1ccc(S(=O)(=O)N[C@@H]2CC[C@@H](CCn3cc(C4(O)CCCC4)nn3)O[C@@H]2CO)cc1	2	2	-0.4
COc1ccccc1C#Cc1ccc([C@@H]2[C@H](C#N)N(C(=O)C3CCC3)[C@H]2CO)cc1	6	2	3.4
COc1cccc(C#Cc2ccc([C@@H]3[C@@H](CO)N4C(=O)CN(C(=O)Cc5ccccc5)C[C@@H]34)cc2)c1	?	.	.
NCC[C@H]1CC[C@@H](NC(=O)NC2CCCCC2)[C@@H](CO)O1	-3	-4	0.4
CC(=O)N1[C@H](CO)[C@H](c2ccccc2)C12CN(C(=O)c1ccccc1)C2	14	11	2.5
C[C@@H]1CN([C@H](C)CO)C(=O)c2cc(N(C)C)ccc2O[C@H]1CN(C)S(=O)(=O)c1cn(C)cn1	3	3	-0.1
CN(C)C(=O)C[C@@H]1C=C[C@@H](NC(=O)Nc2cccc(F)c2)[C@H](CO)O1	2	3	-1.0
COc1cccc(S(=O)(=O)N[C@H]2C=C[C@@H](CC(=O)NCc3ccncc3)O[C@H]2CO)c1	0	-2	2.1
C[C@H](CO)N1C[C@H](C)[C@H](CN(C)Cc2ccc3c(c2)OCCN3C)OCc2cnnn2CCCC1=O	9	14	-5.4
CCC(=O)N1CC2(CCN(C(=O)CN3CCOCC3)CC2)c2c([nH]c3cc(OC)ccc23)[C@@H]1CO	18	7	12
COc1cccc(-c2ccc3n(c2=O)C[C@@H]2[C@@H](CO)[C@H](C(=O)NC4Cc5ccccc5C4)N[C@H]32)c1	?	.	.
C[C@H]1CN([C@@H](C)CO)C(=O)c2c(c3ccccc3n2C)-c2ccccc2CO[C@@H]1CN(C)S(=O)(=O)c1cccs1	?	.	.
CCc1csc(N2[C@H](C#N)[C@H](c3ccc(C#Cc4ccc(F)cc4)cc3)[C@H]2CO)n1	-2	-4	2.0
CNC[C@@H]1Oc2c(NC(=O)c3cnccn3)cccc2C(=O)N([C@@H](C)CO)C[C@H]1C	-2	-1	-1.5
CCCC(=O)N1CC2(CCN(S(C)(=O)=O)CC2)c2c([nH]c3cc(OC)ccc23)[C@@H]1CO	17	12	4.5
C[C@@H]1CN([C@@H](C)CO)S(=O)(=O)c2ccc(-c3cncnc3)cc2O[C@H]1CN(C)C(=O)NC1CCCC1	-1	-5	4.1
CC(C)NC(=O)N[C@@H]1CC[C@H](CCNC(=O)C2CCOCC2)O[C@H]1CO	3	0	3.8
C/C=C/c1ccc([C@@H]2[C@H](CO)N(C(=O)c3ccccn3)C23CN(CCC(F)(F)F)C3)cc1	-1	3	-5.0
O=C(NC[C@@H]1[C@@H](c2ccccc2)[C@H](CO)N1C(=O)C1CC1)NC1CCCC1	-3	0	-3.4
